Screens as filed in PubChem.
HCMV NEC inh = inhibitors of HCMV UL50-UL53 interaction, biochemical, HTRF. inhibition, % (test concentration not listed). HCMV UL50-UL53 nuclear egress complex (human cytomegalovirus). normalized percent inhibition. 0.15% of 190,000 active;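 active means both replicates at 50% or more, plus weaker picks with an unusually low signal ratio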;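 further: stock transfer was 100 nL into about 20 µL; 0% = negative control wells and 100% = wells with untagged competitor protein; inactives centre near -12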
GIV-Gai inh = inhibitors of GIV peptide binding to Galpha-i3, primary screen, biochemical, fluorescence polarization, FITC-GIV GBA peptide, rat Galphai3; percent of control (FP), % (concentration not given with the values); AID 1224905, 2016; 0.42% of 210,000 active; 90 min; hits give low values; scaled: aluminum fluoride 0%, vehicle 100%;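 active means replicate mean at 85% of control or lower, very high polarization wells dropped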;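 further: wells of about 15 µL received 100 nL stock; the first replicate is given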
Target sequence (P08753 whole entry, looked up): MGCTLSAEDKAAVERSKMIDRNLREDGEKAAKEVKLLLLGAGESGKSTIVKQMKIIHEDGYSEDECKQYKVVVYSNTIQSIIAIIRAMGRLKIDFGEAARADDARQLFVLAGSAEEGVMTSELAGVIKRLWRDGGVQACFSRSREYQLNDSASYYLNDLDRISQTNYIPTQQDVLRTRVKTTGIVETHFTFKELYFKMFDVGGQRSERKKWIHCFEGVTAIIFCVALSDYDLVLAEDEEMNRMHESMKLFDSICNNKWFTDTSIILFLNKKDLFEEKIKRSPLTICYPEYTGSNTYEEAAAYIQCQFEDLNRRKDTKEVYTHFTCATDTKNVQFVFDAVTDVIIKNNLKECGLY
Sa growth inh = S. aureus growth inhibition at 42 and 30 °C, primary screen, LtaS inhibitor project, RN4220, two temperatures; OD600, 20 h, 42 °C; hits give low values; relative growth, % (concentration not given with the values); 0.53% of 170,000 active; AID 720641, 2013;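 active means growth at 42 °C up to 50% and 20 or more points under that at 30 °C, or under 10% at both; inconclusive means no clear call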;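 further: 300 nL library stock went into each well; scaled to the means of positive and negative controls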
Sa growth inh second temp = further read-out of Sa growth inh, marked with its call; relative growth, %; measured here: growth at 30 °C;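 optical density after 20 h as mean of two plates; 100% = untreated growth and lower means inhibition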
The depositor's hits bear a star; u = inconclusive; x = no result given. Random draw from the library; overall some 0.79% were active at least once.

SMILES | HCMV NEC inh | GIV-Gai inh | Sa growth inh | Sa growth inh second temp
Cc1nn(-c2ccccc2)nc1C(=O)N1CCC(O)(c2ccc(Cl)cc2)CC1 | 25 | 104 | 71 | 76
COc1ccc(C(=O)NCc2nc3ccccc3[nH]2)cc1 | -4 | x | 97 | 91
Cc1nnc2c(SCc3ccc4c(c3)OCO4)nc3ccccc3n12 | -42 | 102 | x | x
COC(=O)Cn1cc(C(=O)c2ccccc2)c2ccccc21 | -2 | x | 95 | 87
Cc1cc2c(cc1S(=O)(=O)N1CCCC1C(=O)N1CCN(C3CCCCC3)CC1)OCC(=O)N2 (stereo not given) | -15 | 109 | x | x
Cc1ccc(NC(=O)c2oc3ccccc3c2C)cc1 | -15 | 101 | 83 | 63
CCOC(=O)c1c(C)[nH]c(C)c1S(=O)(=O)N1CCCC(C(=O)N2CCN(c3ccccc3F)CC2)C1 (stereo not given) | x | 103 | 97 | 91
NC(=O)CSc1nnc(COc2ccccc2Cl)n1C1CC1 | -4 | x | 96 | 92
O=C(CONC1=NCCCCC1)Nc1ccc(OC(F)(F)F)cc1 | 1 | x | 107 | 94
CCCc1cc(=O)c2c(O)ccc(OC)c2o1 | -16 | 98 | 95 | 72
O=C(Nc1ccccc1)c1cccc(S(=O)(=O)NCC23CC4CC(CC(C4)C2)C3)c1 | -7 | x | 80 | 71
CC1(C)Cc2c(sc3nc(=O)n(Cc4ccco4)c(N)c23)CO1 | -21 | 106 | 99 | 93
CC(=O)Nc1ccc(SCC(=O)N2CC(C)CC(C)C2)cc1 (stereo not given) | -10 | x | 91 | 95
CC(C)(C)P(=Nc1ccc(S(N)(=O)=O)cc1)(N1CCOCC1)N1CCOCC1 | -28 | x | 102 | 91
CC(C)Cc1cc(C(=O)Nc2cnn(Cc3ccc(F)cc3)c2)no1 | -3 | 99 | 107 | 91
COc1ccc(-c2onc(C)c2C)cc1S(=O)(=O)N(C)C(C)CCc1ccco1 (stereo not given) | -18 | 98 | 82 | 83
CCC(CC)c1nc(Nc2ccccc2)c2ccccc2n1 | x | 105 | 102 | 41
Cc1ccc2sc(N(Cc3cccnc3)C(=O)CCOc3ccccc3)nc2c1C | x | 101 | 127 | 91
COc1ccc(Cl)cc1C(=O)Nc1ccc(Cl)c(-c2nc3c(ccc4ccccc43)o2)c1 | 3 | 103 | x | x
COc1ccc(S(=O)(=O)NCC(F)(F)F)cc1Br | -18 | x | 86 | 95
COCCn1c(CCCC(=O)NCCN(C)C)nc2cccnc21 | -32 | 101 | x | x
CCCCC(=O)Nc1cc(C)nn1-c1ncnc2c1cnn2-c1ccc(F)cc1 | 22 | 110 | x | x
CN(Cc1ccccc1)C(=O)c1cc2c(=O)[nH]c3ccccc3c2s1 | 0 | 87 | 118 | 98
CCN(C(=O)c1cnccc1C(F)(F)F)c1nc2cc(Cl)ccc2s1 | -20 | 106 | 83 | 64
NNc1ccc(C(=O)O)cc1 | -36 | x | 75 | 84
O=C(Nc1nncs1)c1cccc(Cl)c1 | -18 | 101 | 104 | 82
Cc1cc(C)cc(NC(=O)NCC(O)c2ccccc2)c1 (stereo not given) | -29 | 103 | 91 | 91
CCOC(=O)C1CCN(C(=O)C2CCN(c3ccc4nnc(C)n4n3)CC2)CC1 | -22 | 99 | x | x
N[C@@H](Cc1ccc(O)c(I)c1)C(=O)O | -32 | 102 | x | x
CCOC(=O)C1CCCN(CC(=O)Nc2cc(C)c3c(=O)oc4ccccc4c3n2)C1 (stereo not given) | 6 | 111 | 110 | 81
O=C(NCc1ccco1)c1noc2c1CCCC2 | -23 | 98 | 95 | 83
O=Nc1ccc2oc(=O)ccc2c1 | -29 | 95 | x | x
COc1ccc(C(=O)N(Cc2sccc2C)C2CCS(=O)(=O)C2)cc1 (stereo not given) | -11 | 98 | 113 | 81
CCC(C(=O)Nc1cccc(C)c1C)n1nc(C)c2sc3ccccc3c2c1=O (stereo not given) | x | 104 | 111 | 89
CCc1ccc(C2CC(=O)Oc3c2c(=O)n(C)c2ccccc32)cc1 (stereo not given) | -11 | 107 | 95 | 88
COc1cccc(-c2nc(CSc3nc4ccccc4c(=O)n3C)c(C)o2)c1OC | -8 | 107 | x | x
COc1ccc(Cl)cc1NC(=O)CSc1nc(-c2ccccc2)c2ccccc2n1 | -26 | 98 | 99 | 89
O=C(O)/C=C/c1cccc(Oc2ccccc2)c1 | -7 | 104 | 107 | 111
CCSc1nnc(NC(=O)C2Cc3ccc(C)cc3C(=O)O2)s1 (stereo not given) | -16 | 96 | 93 | 84
CCC(C)NC(=O)c1ccc2nc(Cc3ccc(OC)cc3)oc2c1 (stereo not given) | x | 99 | 98 | 76
O=C(CSc1nc2ccccc2o1)N1CCc2ccccc21 | -5 | 97 | x | x
CN(NC=C(C#N)C#N)c1cccc(F)c1C#N | -43 | 105 | 87 | 72
CCS(=O)(=O)N1Cc2ccccc2CC1C(=O)N1CCN(c2ccccc2)CC1 (stereo not given) | -13 | x | 95 | 83
Cc1nn(CCCC(=O)NC2CC2)c(=O)c2cc3sccc3n12 | 3 | 101 | 105 | 84
O=C(NCCCn1ccnc1)C1CC(=O)N(CCc2c[nH]c3ccc(F)cc23)C1 (stereo not given) | -4 | 100 | x | x
Cc1ccc(C(=O)N2C(C)CCCC2C)c(Cl)c1 (stereo not given) | -7 | 101 | 108 | 83
CC(C)c1ccc(NC(=O)c2ccc(F)c(S(=O)(=O)N3CCN(c4ccccc4F)CC3)c2)cc1 | x | 117 | 112 | 100
CCOc1ccc(NC(=O)C(CC)n2nc(-c3ccccc3)c3c(c2=O)CCCC3)cc1 (stereo not given) | -8 | 99 | x | x
Cc1ccc(NC(=O)NCCc2c(C)nn(C)c2C)cc1Cl | x | 107 | 104 | 94
CCCCC1CCC(C(=O)N2CC(=O)Nc3ccc(Br)cc3C2c2ccc(F)cc2)CC1 (stereo not given) | 5 | 103 | u | x
Cc1ccc(OCc2ccc(-c3nc(C#N)c(NCc4cccnc4)o3)o2)cc1 | -44 | 100 | 93 | 68
COc1cccc(CN2C(=O)c3ccccc3C2C(=O)NCCc2ccc(OC)c(OC)c2)c1 (stereo not given) | x | 104 | 97 | 86
O=C1CC(c2ccccc2)CC(=O)C1=CN1CCOCC1 (stereo not given) | 9 | x | 87 | 90
O=C(CN(CC(=O)NC1CC1)Cc1ccc(Cl)cc1)NC1CC1 | -6 | x | 92 | 94
CC(C(=O)Nc1ccc2c(c1)OCCO2)S(=O)(=O)c1ccc2c(c1)S(=O)(=O)N=CN2 (stereo not given) | -23 | 107 | x | x
N#Cc1cnc(Nc2ccc(F)cc2)nc1N | 43 | 107 | 112 | 95
Cc1c2cnn(-c3ccccc3)c(=O)c2c(C)n1CCCC(=O)Nc1cc(F)ccc1F | 3 | 101 | 112 | 90
COc1cccc(C2CC(c3ccc(Br)cc3)=NN2C(=O)CCCC(=O)O)c1OC (stereo not given) | -18 | 107 | x | x
Cc1ccc(C)c(Cn2c(CCCO)nc3ccccc32)c1 | 9 | 101 | 107 | 92
Cc1cccc(-c2cc3nc4c(c(N5CCN(Cc6ccc7c(c6)OCO7)CC5)n3n2)CCCC4)c1 | -5 | 108 | 100 | 83

Filtered by structure, those above with an aryl thioether with sulfur outside any ring (7)
SMILES | HCMV NEC inh | GIV-Gai inh | Sa growth inh | Sa growth inh second temp
Cc1nnc2c(SCc3ccc4c(c3)OCO4)nc3ccccc3n12 | -42 | 102 | x | x
NC(=O)CSc1nnc(COc2ccccc2Cl)n1C1CC1 | -4 | x | 96 | 92
CC(=O)Nc1ccc(SCC(=O)N2CC(C)CC(C)C2)cc1 (stereo not given) | -10 | x | 91 | 95
COc1cccc(-c2nc(CSc3nc4ccccc4c(=O)n3C)c(C)o2)c1OC | -8 | 107 | x | x
COc1ccc(Cl)cc1NC(=O)CSc1nc(-c2ccccc2)c2ccccc2n1 | -26 | 98 | 99 | 89
CCSc1nnc(NC(=O)C2Cc3ccc(C)cc3C(=O)O2)s1 (stereo not given) | -16 | 96 | 93 | 84
O=C(CSc1nc2ccccc2o1)N1CCc2ccccc21 | -5 | 97 | x | x

(cont.)
SMILES | HCMV NEC inh | GIV-Gai inh | Sa growth inh | Sa growth inh second temp
CCOC(=O)c1cccc(Nc2nc(C(=O)OCC)nc3ccccc23)c1 | x | 102 | 94 | 69
CCOC(=O)c1ccc(NC(=O)C2CC(=O)N(C)C(=Nc3ccc(C)c(C)c3)S2)cc1 (stereo not given) | -25 | 102 | x | x
CCc1ccc(S(=O)(=O)c2nnn3c2nc(Nc2cccc(C)c2C)c2sccc23)cc1 | x | 99 | 127 | 99
CC(NC(=O)CSc1ncccc1C(=O)O)C1CC2CCC1C2 (stereo not given) | -16 | x | 94 | 75
CN(C)C(=S)N(C#N)c1nc(N(C)C)nc(N(C)C)n1 | x | 101 | 99 | 68
CN(C)c1ccc(C(CNC(=O)C2CC2)N2CCc3ccccc3C2)cc1 (stereo not given) | -29 | 100 | x | x
CCc1nn(-c2ccccc2)c2nc(-c3ccccc3)nc(SCC(=O)Nc3ccccc3)c12 | -13 | 98 | x | x
CCS(=O)(=O)c1nc2ccccc2n1Cc1ccc(C(C)(C)C)cc1 | x | 107 | 113 | 83
CCSc1nc2ncn(CC(=O)Nc3ccc(Cl)cc3)c(=O)c2s1 | -8 | 101 | x | x
Cc1nc(COC(=O)c2ccc(CO)cc2)cs1 | -16 | x | 98 | 93
Cc1ccc(C(=O)OCC(=O)c2ccc(-c3ccccc3)cc2)s1 | -8 | x | 106 | 93
CCC1(CO)CSC(Nc2ccc(Cl)cc2)=N1 (stereo not given) | 1 | x | 91 | 90
CCCNC(=O)c1cc2n(n1)CCCN(Cc1ccc(F)cc1)C2=O | -19 | 93 | 103 | 91
Cc1noc(C)c1Cc1ccc(C(=O)O)s1 | -10 | 101 | 97 | 74
COc1cccc(C(=O)Nc2cc3c(cc2C(=O)c2ccc(C)cc2)OCCO3)c1 | -5 | 108 | 105 | 94
COCCCn1c(=N)c(C(=O)NCc2cccnc2)cc2c(=O)n3cccc(C)c3nc21 | -146 | 112 | 90 | 81
O=S(=O)(Nc1ccc2ccccc2n1)c1cccs1 | 0 | 104 | 110 | 78
CCC(CO)n1c(SCC(=O)Nc2ccc(C)c(C)c2)nc2cc(OC)c(OC)cc2c1=O (stereo not given) | 4 | x | 100 | 93
O=C(NC1CCCc2ccccc21)C1CCN(c2nc3ccccc3[nH]2)CC1 (stereo not given) | -30 | 104 | x | x
CCS(=O)(=O)c1ccc(O)c(NCN2C(=O)S/C(=C\c3ccc(F)cc3)C2=O)c1 | -24 | x | 104 | 86
Cc1ccc(NC(=O)c2oc3ccccc3c2NC(=O)c2cc3ccccc3o2)cc1 | 2 | 112 | 95 | 79
CN1CCN(Cn2c(=S)oc3cc(S(=O)(=O)Nc4ccccc4Cl)ccc32)CC1 | -40 | x | 99 | 91
CC(C)(C)c1cc2n(n1)CC(C)(C(=O)NC1CCCCC1)N(c1ccc(F)cc1)C2=O (stereo not given) | -10 | 100 | x | x
Cn1c(=O)oc2cc(S(=O)(=O)NCc3ccco3)ccc21 | x | 97 | 110 | 89
CCCCn1nnnc1NCc1ccccc1 | -2 | 106 | 103 | 97
COc1cc(CNCc2cccnc2)ccc1OCc1ccc2c(c1)n(C)c(=O)n2C | -8 | 109 | x | x
CC(=O)Oc1c(-c2ccccc2)sc2ccccc12 | -184 | 100 | 71 | 71
CC1=CCC2C(=O)N(C3CCCCC3)C(=O)C2C1 (stereo not given) | -2 | 103 | 109 | 82
O=C(CCCN1C(=O)C(c2ccccc2)Oc2cccnc21)N1CCCCC1 (stereo not given) | -128 | 105 | x | x
CN(C(=O)COC(=O)c1ccccc1Br)C1CCCCC1 | -26 | x | 94 | 93
CCOC(=O)C1CCN(C(=O)Cn2nc(CC)n3c(cc4sccc43)c2=O)CC1 | -3 | 100 | 85 | 94
Nc1c(NCCN2CCOCC2)c2ccccc2oc1=O | -35 | 104 | 105 | 76
CC1CCCC(NC(=O)COC(=O)c2cccc(S(=O)(=O)N(C)C)c2)C1C (stereo not given) | -31 | x | 72 | 94
COc1ccc(S(=O)(=O)NCCc2sc(-c3cccnc3)nc2C)c(F)c1 | x | 105 | 118 | 83
CCCn1c(=O)c2cc(F)ccc2n2c(SCc3ccc(F)cc3)nnc12 | -18 | 100 | x | x
NS(=O)(=O)c1ccc(-n2c(-c3ccncc3)n[nH]c2=S)cc1 | 1 | 104 | 117 | 98

Of the compounds above, three have a tert-butyl group:
SMILES | HCMV NEC inh | GIV-Gai inh | Sa growth inh | Sa growth inh second temp
CC(C)(C)P(=Nc1ccc(S(N)(=O)=O)cc1)(N1CCOCC1)N1CCOCC1 | -28 | x | 102 | 91
CCS(=O)(=O)c1nc2ccccc2n1Cc1ccc(C(C)(C)C)cc1 | x | 107 | 113 | 83
CC(C)(C)c1cc2n(n1)CC(C)(C(=O)NC1CCCCC1)N(c1ccc(F)cc1)C2=O (stereo not given) | -10 | 100 | x | x
